# From PubChem
# Cruzain Triton: blocks cruzain activity in presence of Triton detergent; P25779; purified cruzain, Z-FR-AMC fluorescence, 0.01% Triton; Potency, µM, for the others: max response, negative = inhibition, most hits filed as inhibitors; 200,000 tested, 0.43% active; active = well fitted curve in the direction sought with a large enough effect; inconclusive = small, poorly fitted or top-dose-only effect, or another doubt; inactive = no such curve, though single readings can be large; an effect the other way counts as inactive or inconclusive;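 also: plate controls were neutral wells for no effect and buffer without enzyme for full effect; nearly all actives have a fitted effect of over 40% in size; top concentration of the series not given in the record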
# Target sequence (P25779 123-467 limits assumed): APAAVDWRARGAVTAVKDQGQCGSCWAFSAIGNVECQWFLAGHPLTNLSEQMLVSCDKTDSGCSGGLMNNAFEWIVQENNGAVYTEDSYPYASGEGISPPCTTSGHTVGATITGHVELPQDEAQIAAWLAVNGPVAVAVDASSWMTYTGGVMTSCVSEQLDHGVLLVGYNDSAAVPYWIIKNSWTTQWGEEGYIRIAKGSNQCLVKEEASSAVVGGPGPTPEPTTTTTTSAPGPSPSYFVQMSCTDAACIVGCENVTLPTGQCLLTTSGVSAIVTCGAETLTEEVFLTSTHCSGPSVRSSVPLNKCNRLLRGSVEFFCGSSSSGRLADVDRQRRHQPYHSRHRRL
#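 Compounds were screened in titration against cruzain (1.5 nM) with 0.01% Triton X-100 to counter colloidal aggregation. Activity was the AMC fluorescence increase over 60 s after adding 2 uM Z-FR-AMC at pH 5.5.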
# 2A StopGo: lowers the luciferase signal of an FMDV 2A StopGo reporter; AID 1159524; Potency, µM (top dose mostly 57.9 µM), for inactives: at the highest dose signal change, negative = less light; 410,000 tested, 1.2% active; human cells with a luciferase reporter of 2A StopGo recoding; control for the full effect not named in the record; active = well fitted falling curve with a large enough effect; inconclusive = small, poorly fitted or top-dose-only effect; inactive = no such curve, though single readings can be large or run the other way; tested in HEK293T cells; also: % is scaled to controls: 0 for no effect and ±100 for the full control effect; nearly all actives have a fitted effect of over 45% in size; luciferase light after 4 h
# NS1 inh: influenza NS1 inhibition | Potency, µM (doses to about 46.1 µM), for the others: at the top dose activity, positive = more growth | S. cerevisiae slowed by influenza A NS1, growth recovery by OD600 | 270,000 tested, 0.4% active; also: actives are rising curves; nearly all actives have a fitted effect of over 50% in size
#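 Recovery from NS1-induced slow growth read by OD600 in budding yeast switched to galactose assay medium (pH 6.0, -URA) at 1:100 dilution. Compound 23 nl per well; the matching strain lacking NS1 serves as control.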
# LASV entry inh: Lassa virus entry inhibition | Lassa virus pseudotype entry inhibition, cell reporter; control for the full effect not named in the record | Potency, µM (titrated, usually from 37.9 µM), for inactives: at the top dose activity change, negative = inhibition, most hits filed as inhibitors | 300,000 tested, 1.2% active | AID 540256; active means well fitted inhibition curve with a large enough effect; inconclusive means small, poorly fitted or top-dose-only effect, or effect the other way; inactive means flat fitted curve, though single readings scatter; tested in HEK293 cells; also: % is scaled to controls: 0 for no effect and ±100 for the full control effect; nearly all actives have a fitted effect of over 50% in size; luciferase read-out
# RE007 growth inh: less growth of the S. pombe RE007 Vpr strain; S. pombe RE007 Vpr strain, BacTiter-Glo ATP luminescence, 24 h; control for the full effect not named in the record; 360,000 tested, 0.21% active; Potency, µM (highest dose often 92.2 µM), without a hit: at the top dose activity change, negative = less growth; active = well fitted falling curve with a large enough effect; inconclusive = small, poorly fitted or top-dose-only effect; inactive = no such curve, though single readings can be large or run the other way;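 also: % is scaled to controls: 0 for no effect and ±100 for the full control effect; nearly all actives have a fitted effect of over 50% in size; the assay follows cell death caused by Vpr and the record does not say whether a fall means rescue or toxicity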
#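 Fission yeast RE007 carrying one integrated HIV-1 vpr copy, seeded at OD 0.01 in PMG+AL medium with 23 nL pinned compound. Grown 24 h at 30 degrees; viability read by BacTiter-Glo luminescence after 5 min.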
# Cruzain noTriton: inhibitors of Trypanosoma cruzi cruzain without detergent | Potency, µM, for the others: max response, negative = inhibition, usual class: inhibitors | AID 1476 | P25779 | purified cruzain, Z-FR-AMC fluorescence, no detergent | 200,000 tested, 2.3% active; active = well fitted curve in the direction sought with a large enough effect; inconclusive = small, poorly fitted or top-dose-only effect, or another doubt; inactive = no such curve, though single readings can be large; an effect the other way counts as inactive or inconclusive;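 also: plate controls were enzyme without inhibitor for no effect and buffer without enzyme for full effect; nearly all actives have a fitted effect of over 40% in size; top concentration of the series not given in the record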
#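 Detergent-free condition (0.00005% Triton X-100) in acetate buffer pH 5.5 with DTT. 1.5 nM enzyme and compound were pre-mixed 15 min, then 2 uM Z-FR-AMC substrate added; reaction progress from fluorescence change between first and third reads (60 s).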
# SARS PLpro yeast: SARS-CoV PLP inhibition in yeast; S. cerevisiae expressing SARS-CoV PLpro, growth rescue; control for the full effect not named in the record; Potency, µM (top dose mostly 32.9 µM), for inactives: at the highest dose activity, positive = growth rescue; 330,000 tested, 0.19% active; also: 0% is about no effect; nearly all actives have a fitted effect of over 55% in size; growth read by luminescence after 48 h
# Marburg entry inh: blocks Marburg virus binding to or entry into cells | Marburg virus pseudotyped entry inhibition, cell reporter; control for the full effect not named in the record; about a third of the inactives were read at about 46 µM | 300,000 tested, 1.8% active | Potency, µM (doses to about 37.8 µM), for inactives: at the highest dose activity change, negative = inhibition, hits mostly inhibitors; active = well fitted inhibition curve with a large enough effect; inconclusive = small, poorly fitted or top-dose-only effect, or effect the other way; inactive = flat fitted curve, though single readings scatter; tested in HEK293 cells; about a fifth of its hits are not listed in these tables; also: % is scaled to controls: 0 for no effect and ±100 for the full control effect; luciferase read-out
# * hit, by the source's call; ? = inconclusive; . = no result given; [ ] = dose if it differs, or a comment. Unless noted, calls follow the shape of the dose curve; as a rule, active means well fitted rising curve with a large enough effect; inconclusive means small, poorly fitted or top-dose-only effect; inactive means no such curve, though single readings can be large or run the other way. Potency is read from the fitted curve at half-maximal effect. Random draw from the library. Share with any hit: about 4.8%.
SMILES,Cruzain Triton,2A StopGo,NS1 inh,LASV entry inh,RE007 growth inh,Cruzain noTriton,SARS PLpro yeast,Marburg entry inh
O=C(NCc1ccccc1)/C(=C/c1ccc([N+](=O)[O-])cc1)NC(=O)c1ccco1,.,16%,17%,.,6%,.,1%,5%[46.1 µM]
CC(=O)N1CCN=C1SCc1ccccc1Cl,0.8%,-9%,5%,.,-12%,4%,11%,.
CC1(C)Cc2c(c(=S)nc(-c3ccccc3)n2CCOCCO)CO1,-0.9%,-2%,-13%,10%,2%,-15%,-8%,21%
COC(=O)c1ccc(CCc2cc(O)c(Br)cc2O)cc1,.,-16%,.,-22%,11µM*,.,.,5%
CSc1ccc(Cl)c(C(=O)NCc2ccco2)c1,?,9%,?,8%,0%,20µM*,?,0%
CC(=O)Nc1ccc2[nH]c(C)c(CC=C(Cl)Cl)c(=O)c2c1,-1.8%,15%,0%,-5%,0%,?,0%,3%
Cc1ccccc1-c1noc(CCC(=O)NCc2ccco2)n1,.,11%,9%,?,3%,.,-3%,18%
Cc1nc(N2CCCC2)c2c(C(=O)N3CCN(c4cc(Cl)ccc4C)CC3)c(C)oc2n1,-1.4%,-21%,.,?,.,?,.,.
COc1ccc(N2CC(NS(=O)(=O)c3cccs3)CC2=O)cc1 (stereo not given),.,-11%,.,2%,18%,.,-2%,-1%[46.1 µM]
CCC(C)(C)NC(=O)C(c1cccc(OC)c1OC)N(Cc1ccccc1)C(=O)CCC(=O)Nc1cc(C)on1 (stereo not given),.,-14%,20%,?,-13%,.,-1%,?
Cc1cc(Nc2ccc3c(c2)OCCO3)c2cccc(C)c2n1,-18%,-11%,2%,?,3%,-11%,8%,?
Cc1ccc(NC(=O)Cc2noc3ccccc23)nc1,-0.7%,28%,-7%,4%,9%,-7%,-4%,-9%
CN(C)CCN(C)Cc1c2ccccc2c(CN(C)CCN(C)C)c2ccccc12,.,-5%,-36%,?,-9%,.,2%,?
O=[N+]([O-])c1ccc(S(=O)(=O)NN=Cc2ccc(Cl)c(Cl)c2)cc1,.,12%,.,10%[46.1 µM],4%,.,.,?
COc1ccc(NC(=O)C2CCN(c3nc(-c4ccc(OC)c(OC)c4)no3)CC2)cc1Cl,-0.3%,-10%,.,13%[46.1 µM],.,3%,.,-7%[46.1 µM]
Cc1ccccc1Cn1cc(NC(=O)c2nn(C)cc2Cl)cn1,-2.3%,34%[activator],-2%,?,2%,0%,20%,14%
Cc1cccc(N2C(=O)C(Oc3ccc(Cl)cc3Cl)C2C(=O)O)c1C (stereo not given),8.3%,?,3%,0%,5%,-13%,7%,1%
Cc1c(Cl)cccc1NC(=O)c1ccc2nc(C(C)C)oc2c1,-2.9%,?,.,9%[46.1 µM],.,7%,.,.
CCC(=O)n1nc(-c2cccnc2)nc1NCc1ccc(OC)cc1,4.5%,-19%,-48%,-1%,14%,-2%,-4%,19%
Clc1ccc(C=NC23CN4CN(CN(C4)C2)C3)cc1,1.9%,-13%,-4%,5%,45%,-1%,1%,7%[46.1 µM]
O=C(C1CCN(Cc2ccc(F)cc2)CC1)N(CCO)Cc1ccccc1,-2.5%,6%,-6%,1%,-16%,-7%,-3%,9%
Cc1ccc(-c2c(C#N)c(N)nc3c2CCCCCC3)o1,2.2%,.,3%,?,-8%,-18%,-1%,11%
O=c1[nH]c2ccc(NCc3ccc(-c4cccc(Cl)c4)o3)cc2[nH]1,-2.1%,-16%,.,1%[46.1 µM],.,?,.,?
CCOCCCNC(=S)N1C2CCC1CC(NC(=O)NC1CCCCC1)C2 (stereo not given),-0.8%,.,-4%,-7%,-8%,-1%,0%,2%
Cc1c(C(=O)N2CCN(CCc3ccccn3)CC2)oc2ccc(F)cc12,.,-20%,1%,.,-6%,.,-2%,.
COc1ccc([C@@H]2C[C@@H](c3ccccc3)Oc3cc(OC)c(OC)c(OC)c32)cc1,.,0%,12%,.,-10%,.,-2%,.
O=C(NC1CC1)C1CCN(c2ccc(S(=O)(=O)N3CCOCC3)cc2Cl)CC1,3.5%,-13%,-3%,-9%,-6%,6%,5%,4%
COc1ccc(C(CCN2CCCC(C)C2)c2c(OC)cc(OC)c3c2OC(=O)CC3c2cc(OC)c(OC)c(OC)c2)cc1 (stereo not given),.,-10%,3%,.,-17%,.,2%,.
O=C(CSc1cccc2cccnc12)Nc1ccccc1F,.,18%,-41%,-10%[46.1 µM],-2%,.,-9%,6%[46.1 µM]
COc1ccc(OCCn2c(NC(=O)c3ccco3)nc3ccccc32)cc1,-13%,-22%,4%,13%,-7%,5%,1%,6%
CN(C)c1ccc(CNS(=O)(=O)c2ccc(-c3cc(C(F)(F)F)on3)s2)cc1,-1.0%,-13%,.,-1%[46.1 µM],.,-14%,.,.
COc1ccc(NC(=O)CNCCC2=CCCCC2)cc1,1.4%,.,1%,3%,6%,-4%,-1%,?
CC(=O)c1ccccc1NC(=O)c1ccc2c(c1)NC(=O)C(C)S2 (stereo not given),.,-7%,.,-33%,-2%,.,0%,?
CCn1cnc2c1c(=O)n(Cc1cccc([N+](=O)[O-])c1)c(=O)n2Cc1ccccc1,.,-11%,13%,-7%[46.1 µM],-8%,.,5%,-22%[46.1 µM]
Cc1ccc(S(=O)(=O)N2CCN(C(=O)c3cc(=O)[nH]c4ccccc34)CC2)c(C)c1,0.1%,?,-5%,?,14%,-7%,1%,?
Clc1ccc(CSc2nnc(/C=C/c3ccccc3)o2)cc1,-3.8%,-25%,8%,-26%,-2%,1%,0%,3%[46.1 µM]
COc1ccc(NC(=O)CCc2nc(C3=CCN(Cc4cccc(Cl)c4)CC3)no2)cc1OC,0.7%,32µM*,.,-27%[46.1 µM],.,0%,.,.
Fc1ccc(C2=NNC(=NCc3ccccc3)SC2)cc1F,.,0%,.,1%,10%,.,1%,?
COc1ccc(/C=N/N2CCN(c3ccccc3OC)CC2)cc1Br,.,45%[activator],-21%,.,-14%,.,-3%,.
CCOC(=O)N1CCN(CC(=O)Nc2cc(OCC)ccc2OCC)CC1,1.7%,-5%,-37%,-27%,-9%,28%,-8%,-18%
Cc1c(CCC(=O)N2CCCCC2)c(=O)oc2cc3occ(C(C)(C)C)c3cc12,0.4%,?,.,?,.,1%,.,21%[46.1 µM]
O=C(NC1CCCCC1)C(c1ccccn1)N(C(=O)c1csnn1)C1CCCCC1 (stereo not given),.,-20%,-8%,11%,3%,.,0%,?
Cc1ccc(-n2c3c(c(=O)[nH]c2=O)C(C(F)(F)F)(C(F)(F)F)NC(=O)N3)cc1,3.3%,13%,9%,23%,-6%,-5%,-1%,17%
O=C(COC(=O)c1cncc(Br)c1)Nc1ccc2c(c1)OCO2,.,16%,.,8%,20%,.,-1%,1%[46.1 µM]
c1ccc(-c2nnc(-c3ccccn3)c(-c3ccccn3)n2)nc1,.,6%,-20%,0%,5%,.,7%,?
CC(C)(C)OC(=O)N1CCC[C@H]1C(=O)N/N=C/c1cccc2cccnc12,.,-9%,2%,?,5%,.,-2%,?
CC(=O)Nc1ccc(NC(=O)C(C)OC(=O)c2cccc(S(=O)(=O)N3CCCCCC3)c2)cc1 (stereo not given),.,-10%,.,-14%,4%,.,-1%,?
O=[N+]([O-])c1ccccc1N/N=C\c1ccccc1Cl,-2.5%,33%[activator],3%,?,0%,20µM*,1%,?
CSc1nnc(-c2cccc(NC(=O)c3ccccc3)c2)n1C,.,-4%,-1%,-1%,-17%,.,0%,?
O=C(NC(NC(=S)N1CCOCC1)C(Cl)(Cl)Cl)c1ccc(Cl)cc1 (stereo not given),-3.4%,-5%,9%,3%,13%,7%,1%,-21%
COc1ccc(N2C(=O)N3[C@H](c4ccc(Cl)cc4)[C@@H]4C(=O)N(C5CCCCC5)C(=O)[C@@H]4[C@]3(Cc3ccc(Cl)cc3)C2=O)cc1,.,-9%,14%,.,-4%,.,8%,.
O=C(NCc1ccccc1Cl)NCc1ccccc1Cl,.,21%,-3%,.,6%,.,-1%,.
Cc1ccc(Cn2ccnc2SCC(=O)NCc2ccccc2Cl)cc1,-10%,9%,.,?,.,5%,.,.
O=C(CNC(=O)C(c1ccccc1)c1ccccc1)N/N=C/c1ccc(O)c([N+](=O)[O-])c1,-4.3%,-4%,6%,0%,-3%,9%,7%,-19%
CCOC(=O)NC(=O)/C(C=Nc1ccc(Cl)c(Cl)c1Cl)=C(\C)O,-0.7%,8%,6%,3%,-14%,-13%,?,1%
CCn1c2ccccc2c2cc(/C=N/n3c(C)nnc3C)ccc21,-16%,.,-50%,?,-4%,?,-28%,?
CCOc1ccc(OCC)c(NC(=O)C2CCCN(S(=O)(=O)c3ccc(C)cc3)C2)c1 (stereo not given),-3.1%,?,4%,-18%[46.1 µM],-4%,1%,12%,?
CCOc1cc(S(=O)(=O)NCc2cccnc2)c(C)cc1C,.,17%,-1%,-1%,-3%,.,-1%,-1%
Cc1cccc(-n2ncc3c2CCCC3NC(=O)c2ccc[n+]([O-])c2)c1C (stereo not given),.,-26%,-4%,.,-26%,.,6%,.
Cc1ccc(-n2c(O)c(C=NCc3ccco3)c(=O)[nH]c2=S)cc1C,.,-5%,?,9%,2%,.,0%,2%[14.2 µM]
# New compounds follow
SMILES,Cruzain Triton,2A StopGo,NS1 inh,LASV entry inh,RE007 growth inh,Cruzain noTriton,SARS PLpro yeast,Marburg entry inh
COc1ccc2nc(NC(=O)C3CCCO3)sc2c1 (stereo not given),.,5%,0%,?,-2%,.,1%,?
Cc1ccc(Cl)cc1NC(=O)CCC(=O)O,.,-10%,1%,5%[46.1 µM],12%,.,1%,?
CCCCOC(=O)Nc1nnc(-c2ccccc2OC)s1,2.4%,-2%,-7%,-19%,-11%,16µM*,0%,8%
CCC(CC)c1nc(C#N)c(NC(C)c2ccccc2)o1 (stereo not given),-5.3%,-18%,-37%,?,3%,4%,15%,?
